Screens deposited in PubChem BioAssay by several laboratories.
ALR H2O2 inh: human ALR oxidase inhibition via reduced H2O2. P55789. purified ALR, DTT oxidation, H2O2 HRP-luminol luminescence. inhibition, % (no concentration beside the values). 3.8% of 290,000 active. AID 485317;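 active = mean and each replicate at 75% or more; inconclusive = only one of the two met; inactive = neither met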;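 also: stock transfer was 7.5 nL into about 7.5 µL; 0% = neutral wells and 100% = wells with inactivated enzyme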
Target sequence (P55789 whole entry, looked up): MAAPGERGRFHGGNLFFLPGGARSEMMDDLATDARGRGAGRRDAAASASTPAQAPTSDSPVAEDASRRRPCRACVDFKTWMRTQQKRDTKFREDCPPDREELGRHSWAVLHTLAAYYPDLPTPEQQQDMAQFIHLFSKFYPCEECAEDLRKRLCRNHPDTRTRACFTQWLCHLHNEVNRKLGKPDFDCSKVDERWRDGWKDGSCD
LANA-H2A inh: blocks KSHV LANA binding to histone H2A/H2B | Q9QR71 | AID 2629 | 0.6% of 320,000 active | inhibition, % (test concentration not listed) | cell-free LANA-H2A/H2B peptide, fluorescence polarization; in the data active = inhibition mostly above about 10%, no sharp cut-off; inactive = mostly below about 6.7%;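 also: stock transfer was 7.5 nL into about 10 µL; 0% = median of vehicle wells and 100% = median of positive control wells; one replicate is shown; the record names a cut of 25% in any replicate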
A1 inh: inhibitors of the anti-apoptotic protein A1, read as caspase activation; MEF A1-2A-BIM cells, Caspase-Glo 3/7 luminescence, 3 h; percent of clofoctol response, vehicle zero; caspase activation, % (no concentration beside the values); AID 2462; 0.066% of 330,000 active;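 active = over half of replicate activation scores above 10%, or exactly half above 10 with the replicate mean above 10; inconclusive = replicate mean below 10 yet half the replicates above 10; inactive = over half of replicates below 10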;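 also: wells of about 30 µL received 50 nL stock; many hits fall short of the cut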
B2AR ag: activates human beta-2 adrenergic receptor causing internalization. response, % (no concentration beside the values). 0.43% of 340,000 active. P07550. AID 504454. Am2.2-beta2AR cells, FAP receptor internalization, flow cytometry; reference of the scale not given here;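 active = response above a set limit, near 3 SD of response in nonfluorescent compounds, cut at about 42% in these data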;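 also: stock transfer was 100 nL into about 11 µL; a reference agonist was the positive control; negative values mostly stem from fluorescent compounds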
Target sequence (P07550 whole entry, looked up): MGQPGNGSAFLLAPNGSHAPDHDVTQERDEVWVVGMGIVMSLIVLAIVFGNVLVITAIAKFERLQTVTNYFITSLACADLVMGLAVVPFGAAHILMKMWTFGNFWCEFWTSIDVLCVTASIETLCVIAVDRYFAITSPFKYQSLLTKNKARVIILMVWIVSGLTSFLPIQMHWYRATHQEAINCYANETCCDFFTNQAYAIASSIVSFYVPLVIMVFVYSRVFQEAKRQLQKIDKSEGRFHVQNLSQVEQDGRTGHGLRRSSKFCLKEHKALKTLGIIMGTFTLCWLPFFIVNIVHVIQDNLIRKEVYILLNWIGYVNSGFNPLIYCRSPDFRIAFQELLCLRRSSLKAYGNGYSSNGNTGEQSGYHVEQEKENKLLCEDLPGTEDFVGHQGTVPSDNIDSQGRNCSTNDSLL
Beta apoptosis: beta cell apoptosis inhibition | INS-1E cytokine-induced death, ATP luminescence, 48 h; percent of positive-control rescue, neutral wells zero | protection from apoptosis, % (test concentration not listed) | 0.8% of 300,000 active;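 active = all replicates at 75% or more, or half of them and the mean; inconclusive = half reach 75% but not the mean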;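 also: 0% = cytokine-treated negative control wells and 100% = positive control rescue; higher means more ATP so stronger rescue from cytokine killing; wells of about 40 µL received 100 nL stock; the first replicate is given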
Calb FLC: affects C. albicans growth with fluconazole. C. albicans CaCi-2 (fluconazole-resistant clinical isolate) + fluconazole, Alamar Blue growth, 48 h. growth inhibition, % (test concentration not listed). 0.57% of 300,000 active;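 active = most replicates above 75%; inconclusive = exactly half above 75%; inactive = most below 75%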;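 also: all wells also contain fluconazole at 8 µg/ml as a sub-toxic cotreatment; 0% = median of DMSO wells and 100% = median of geldanamycin control wells; wells of about 8 µL received 7.5 nL stock; the first replicate is given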
Ecoli rRNA inh: selective bacterial rRNA inhibition in E. coli | E. coli WT GFP vs humanized-ribosome RFP mutants, fluorescence, 24 h; active compounds read low; DMSO median 0, no signal -100 | GFP signal change (wild-type ribosome), % (no concentration beside the values) | 1.6% of 350,000 active | AID 720706;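 active = significant combined selectivity score with lowered wild-type GFP, culture density cut under 30%, mutant RFP and density less affected; inactive = any of these conditions unmet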; also: one replicate is shown; some compounds called inactive have numbers as strong as hits
T cruzi repl: T. cruzi replication inhibition; T. cruzi beta-gal in NIH3T3, luminescence, 90 h; inhibition, % (no concentration beside the values); 1.4% of 300,000 active; AID 1885;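 active = mean inhibition across valid replicates above about 55%, limit read from the data; inconclusive = mean below that limit but half or more replicates reach it; inactive = mean below it, under half of replicates reach it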;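 also: signal also drops with host cell toxicity which is not excluded here; 0% = plate median of DMSO wells and 100% = zero luminescence signal; higher percent means less beta-gal luminescence so fewer parasites; stock transfer was 50 nL into about 50 µL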
Ecoli rRNA inh OD600: second read-out of Ecoli rRNA inh, no call of its own (marks repeat the call); OD600 change, %; measured here: OD600 growth;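 optical density of the mix in the first replicate; 0 = DMSO median and -100 = no signal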
Ecoli rRNA inh RFP: recorded beside Ecoli rRNA inh, whose call it bears; RFP signal change, %; measured here: RFP humanized mutant strains;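 first replicate; 0 = DMSO median and -100 = no signal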
Active calls of the source: *; ? = inconclusive; / = not tested or not shown; & = joins results of further samples.

SMILES	ALR H2O2 inh	LANA-H2A inh	A1 inh	B2AR ag	Beta apoptosis	Calb FLC	Ecoli rRNA inh	Ecoli rRNA inh OD600	Ecoli rRNA inh RFP	T cruzi repl
Cc1ccc(SCc2cn3c(C)cc(C)nc3n2)cc1	-8	6.0	1.0	-16	-4	0	-7	-1	0.6	-7
COc1cc(NC(=O)CCC2CCCC2)cc(-n2cnnn2)c1	1	-3.3	-1.2	-12	4	9	/	/	/	-8
COC(=O)c1ccc(C23CC4(C2)[C@H](CN(Cc2cccnc2)[C@@H]4c2ccccc2)C3c2ccc(Cl)nc2)cc1 (stereo partly specified)	/	-0.9	0.4	6	14	20	1	7	2.4	37
C[C@H]1CN=C(N(C)C)N1CC1CCC(C(C)(C)C)CC1 (stereo partly specified)	-2	-0.7	-0.5	-2	6	/	12	8	2.5	/
O=C(COC(=O)c1cnc(Cl)c(Cl)c1)NCc1cccs1	4	-1.7	0.4	0	0	-6	15	24	0.9	-10
N#CC(C(=O)Nc1ccc(Cl)cc1)=C1Nc2ccccc2N1	2	0.4	-0.2	-24	7	0	/	/	/	19
Cc1ccc[n+](-c2nc3ccccc3nc2C(=C=[N-])C#N)c1	-7&-6	-2.5&0.5	-0.2&-1.0	14&9	-4&1	2&-3	14	1	0.7	-9&-3
O=C(NCc1ccco1)/C(=C/c1ccccc1F)NC(=O)c1ccccc1	6	-2.2	1.1	13	-9	-20	5	1	-1.0	-14
COc1ccc(OC)c(NC(=O)COC(=O)CC2CCCCC2)c1	-6	-2.3	0.4	7	3	/	-17	-38	-9.9	/
COCCNC(=O)C(c1ccc(C)cc1)N(CCOC)C(=O)CCC(=O)Nc1nccs1 (stereo unspecified)	-4	-2.8	0.2	-2	-5	10	2	6	0.3	-7
O=c1[nH]c(=S)[nH]c2c1C(c1cc([N+](=O)[O-])c(N3CCOCC3)cc1N1CCOCC1)O2 (stereo unspecified)	-8	5.9	0.1	0	-4	?	10	15	1.8	5
c1ccn(-c2ncnc3sc4c(c23)CCCC4)c1	5	-3.9	0.5	6	7	/	/	/	/	/
Fc1ccc(CNC(=S)NCc2cccc(Cl)c2)cc1	0	7.8	1.1	-1	-4	-17	-40	-61	-8.4	22
CNC(=O)/C(C#N)=C/c1c(N2CCCCCC2)nc2ccccn2c1=O	/	-1.0	1.2	-18	-1	7	0	-2	-1.9	2
O=C(NCc1ccccn1)c1ccc(OC2CCN(Cc3ccccc3O)CC2)cc1	16	5.0	0.7	-1	-3	-2	-1	-20	-0.1	10
Cc1ccc(OCC(=O)N(C)CCc2ccccn2)cc1	-10	4.1	0.6	-1	-11	-16	7	8	-2.5	0
COc1ccc(-n2c(C)cc(C=O)c2C)cc1Cl	-6	0.5	1.6	-4	0	4	/	/	/	-13
O=C(/C=C/c1ccc(Cl)cc1)N1CCN(c2ccccc2[N+](=O)[O-])CC1	-7	1.8	0.1	-17	1	-6	-31	-43	-27	1
Cc1cc(NC(=O)CSc2ncc(CO)n2Cc2ccc(F)cc2)no1	-4	3.8	-1.2	-1	1	2	8	10	1.9	-8
O=C(Nc1ccon1)c1ccc(S(=O)(=O)N2CCCCCC2)cc1	-2	-2.7	0.8	-11	1	-5	/	/	/	8
O=c1oc([C@@H](O)c2ccccc2)cc2ccccc12	1	4.1	0.0	-5	-8	/	-14	-12	-9.9	/
COC(=O)CCC(=O)N1CCC(CCC(=O)NCc2ccc(F)cc2)CC1	-9	0.2	1.3	-3	-8	1	0	10	0.2	-20
Cc1noc(C)c1C(=O)OCC(=O)c1c(N)n(CC(C)C)c(=O)n(C)c1=O	-1	-2.8	-0.7	3	8	0	/	/	/	13
COc1ccc(CC(=O)Nc2nccs2)cc1OC	-15	-7.6	0.4	-7	-8	-3	/	/	/	-4
CCOc1ccc(CCNC(=O)C2CCN(c3ccc(N4CCOCC4)nn3)CC2)cc1OCC	24	0.6	-0.9	-3	0	2	/	/	/	-4
CCN(C(=O)Cc1c(C(=O)O)n(C)c2ccccc12)c1ccc(F)cc1	8	-3.5	-0.5	-5	1	-2	10	1	-4.5	1
Cc1nnc(NC(=O)CSc2ccc(-c3ccc(Cl)cc3)nn2)s1	-6	0.1	-1.2	9	-4	-15	4	5	4.9	2
COc1ccc(/C=C2/SC(=O)N(CCNC(=O)C3CCCN3C(=O)c3cccs3)C2=O)cc1 (stereo unspecified)	-3	2.1	-0.7	-9	-7	-24	-4	-8	0.7	0
CCN1CCN(S(=O)(=O)c2ccc(Cl)c(C(=O)N(CC)CC(=O)Nc3ccc(OC)cc3)c2)CC1	-1	-4.3	0.2	-1	-8	5	5	8	2.2	-3
Cn1c(SCc2cc(=O)[nH]c(C(C)(C)C)n2)nnc1C(F)(F)F	5	-2.5	0.8	-12	-3	1	9	5	3.0	-9
C=CCSc1nnc(NC(=O)CSc2nc3ccccc3o2)s1	/	5.6	0.5	-6	-5	0	/	/	/	-1
O=C(Cn1ncc2c3ccccc3n(Cc3ccccc3F)c2c1=O)NC1CC1	1	-1.1	0.1	-6	-3	5	16	9	-0.1	0
CCOc1cc(C)c(Cl)cc1S(=O)(=O)NCC1CCCO1 (stereo unspecified)	-1	2.4	0.6	5	-2	-2	/	/	/	-18
FC(F)Sc1nnc(-c2cccs2)n1-c1ccccc1	-13	-2.1	0.1	1	-2	-7	/	/	/	-2
Cc1cc(NC(=O)CSc2nc3ccccc3c(=O)n2C(C)c2ccccc2)no1 (stereo unspecified)	2	2.0	0.1	-2	4	-5	/	/	/	16
CCOc1ccccc1N1CC(C(=O)Nc2nccs2)CC1=O (stereo unspecified)	-9	-5.8	-0.6	3	1	-14	/	/	/	20
CC1(C)Oc2ccc3ccc(=O)oc3c2[C@H](O)[C@H]1O	1	1.6	1.0	-4	-7	/	4	1	11	/
Cc1ccc(C)c(-n2c(SCC(=O)NCC3CCCO3)nnc2-c2ccoc2C)c1 (stereo unspecified)	4	-4.0	0.0	0	-4	12	/	/	/	-8
O=C(Nc1cccnc1)c1cc(S(=O)(=O)N2CCCCC2)c(Cl)cc1Cl	17	-2.6	0.3	1	4	-11	-6	-13	4.5	-15
COc1ccc(CN2C(=O)C(O)(CC(=O)c3ccc4c(c3)OCO4)c3ccccc32)cc1OC (stereo unspecified)	-1	-5.3	0.2	-7	0	-25	/	/	/	14
CC(=O)N(C(C)=O)c1ncnc2c1c(-c1ccc(Cl)cc1)nn2C(C)(C)C	-4	-4.3	0.5	17	4	62	-6	-19	1.7	61*
COc1cccc(N2CCN(C(=O)CC(C)(C)CC3=NS(=O)(=O)c4ccccc4N3)CC2)c1	51	-6.9	0.0	20	27	10	-5	-7	11	17
COc1ccc(N2CCN(C(=O)c3sc4ncn(CC(=O)N5CCCCC5)c(=O)c4c3C)CC2)cc1	?	2.0	-0.8	-1	3	-1	-1	3	1.2	20
Cn1c(=O)[nH]c(=O)c2c1nc(CN1CCN(c3cccc(Cl)c3)CC1)n2CCCc1ccccc1	/	3.0	-0.4	8	3	-1	3	8	-1.6	11
CC(C)(C)c1cc(C(=O)N/N=C/c2ccc(-c3ccccc3[N+](=O)[O-])o2)n[nH]1	-10	-4.0	-0.3	19	-10	0	-6	-34	12	2
CCn1cc(/C=C(\NC(=O)c2ccccc2F)C(=O)N2CCCC2)c2ccccc21	41	3.2	-0.5	2	-1	16	/	/	/	-3
O=C(O)Cc1sc(Nc2ccc(F)cc2)nc1-c1cccs1	41	5.3	-2.6	8	-2	21	-16	-8	14	-18
O=[N+]([O-])c1cccc(Cl)c1NCCNS(=O)(=O)c1ccc(Cl)cc1	-5	-8.5	-1.3	1	-10	19	/	/	/	2
Cn1c(Cc2ccccc2)nnc1SCC(=O)N1CCOCC1	-1	-0.9	1.0	-8	-6	9	/	/	/	-7
COc1ccc(-c2nc(-c3cccc(C)c3)[nH]c(=O)c2C#N)cc1	-1	2.7	-0.1	7	6	14	/	/	/	-1
Nn1cc(-c2ccccc2)nc1SCC(=O)N1CCN(S(=O)(=O)c2ccccc2)CC1	16	2.7	-0.1	-1	-2	6	/	/	/	4
CCOC(=O)[C@H]1[C@H]2COc3ccc(Br)cc3[C@@H]2N2C(=O)c3c(C)cc(C)cc3NC(=O)[C@@]12C	2	3.7	0.9	-4	14	/	/	/	/	/
COC(=O)C1=C(C)Nc2ccc(C)cc2S1	98*	5.2	-0.8	5	-5	10	1	0	3.1	-21
Cc1ccc(S(=O)(=O)N(C)c2ccc(C(=O)N(CC(C)C)C3CCS(=O)(=O)C3)cc2)cc1 (stereo unspecified)	4	-1.3	0.1	-3	-2	-2	-4	-3	2.7	-6
Cc1c(NC(=O)c2cccc(-c3cc4ccccc4oc3=O)c2)cccc1-c1nc2ncccc2o1	/	4.7	-0.2	3	9	-3	/	/	/	23
Cc1ccc2nc(CSc3nnc(Nc4ccccc4C)s3)cc(=O)n2c1	/	-2.7	-0.6	-12	5	-1	/	/	/	1
Cc1ccc(C)n1-c1ccc(NC(=O)c2ccccc2)cc1	-42	-2.7	-0.5	12	-5	-4	/	/	/	-9
CCOC(=O)c1c(/N=C/C2C(=O)CCCC2=O)sc2c1CCCC2	?	4.0	-0.3	-5	/	0	6	-1	16	-6
CC(OC(=O)Cn1[nH]c(=O)c2ccccc2c1=O)C(=O)Nc1cccc(Cl)c1 (stereo unspecified)	-1	-5.2	0.6	7	2	18	1	3	-1.0	-9
O=C(Nc1ccc2c(c1)OCCO2)c1ccc2nccnc2c1	-6	-1.3	-5.6	-4	-8	4	12	5	15	-15

More entries
SMILES	ALR H2O2 inh	LANA-H2A inh	A1 inh	B2AR ag	Beta apoptosis	Calb FLC	Ecoli rRNA inh	Ecoli rRNA inh OD600	Ecoli rRNA inh RFP	T cruzi repl
Cc1nn(C)c(C)c1NC(=O)CSc1nc(C2CC2)nc2c1cnn2-c1ccccc1	3	-2.9	-2.0	-17	5	-8	/	/	/	-7
CCCn1c(N)c(C(=O)CSc2nnc(-c3ccco3)n2Cc2ccccc2)c(=O)[nH]c1=O	1	-5.3	-0.7	-6	-7	-2	/	/	/	6
Cc1nc2sc(C(c3ccco3)N3CCN(C(c4ccccc4)c4ccccc4)CC3)c(O)n2n1 (stereo unspecified)	/	9.5	0.1	3	-13	4	-3	2	7.8	20
Cc1ccc(C)c(NC(=O)CN(C)C(=O)c2ccc3c(=O)n4c(nc3c2)CCC4)c1	-5	/	0.0	-4	-5	/	9	12	-3.1	/
C=CCN1C(=O)C(Cc2ccc(F)cc2)S/C1=N/N=C/c1cccs1 (stereo unspecified)	9	1.2	-0.3	-2	-5	14	/	/	/	6
COC(=O)c1cn(NC(=O)Cn2nc([N+](=O)[O-])c(Cl)c2C)c(=O)c2ccccc12	-2	-1.2	0.6	1	-2	?	5	2	0.2	-2
Cc1ccnc(SCC(=O)c2cccc([N+](=O)[O-])c2)n1	-1	12	2.0	-3	-8	7	6	8	-2.0	-7

An excerpt; the hit share may differ from the screen's.
